PINK1 modulator = A Quantitative High throughput Screen to Identify Chemical Modulators of PINK1 Expression; PINK1 immunofluorescence, high-content cytometry, 24 h; Potency, µM (series often up to 76.6 µM), inactives show at the highest dose activation (PINK1 increase), actives largely listed as activators; 410,000 tested, 0.2% active; AID 624263, 2012; active = well fitted activation curve with a large enough effect; inconclusive = small, poorly fitted or top-dose-only effect; inactive = flat fitted curve, though single readings scatter; cell line not stated here;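 further: potency means the concentration at half of the fitted maximal effect; % of control where 0% means no effect; nearly all actives have a fitted effect of over 65% in size; a mitochondrial uncoupler was the plate control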
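A stable cell line was treated with compounds at 5 concentrations for 24 hours, with CCCP as control. PINK1 levels and mitochondrial localization were measured by immunofluorescence with mitochondrial, cell and nuclear markers after fixation, read by laser-scanning cytometry.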
D2 agonist = Beta-Arrestin HTS for Positive Allosteric Modulators of the Human D2 Dopamine Receptor: Agonists; 360,000 tested, 0.084% active; AID 624465, 2012; activation, % (concentration not given with the values); DiscoveRx PathHunter D2 beta-arrestin, luminescence, 90 min; 100% = 57 uM dopamine signal; in the data active = activation above about 40%; inconclusive = about 15% to 40%; inactive = below about 15%; further: compound concentration not given in the record; the text of the record calls up to 30% inactive
Target sequence (P14416 whole entry, looked up): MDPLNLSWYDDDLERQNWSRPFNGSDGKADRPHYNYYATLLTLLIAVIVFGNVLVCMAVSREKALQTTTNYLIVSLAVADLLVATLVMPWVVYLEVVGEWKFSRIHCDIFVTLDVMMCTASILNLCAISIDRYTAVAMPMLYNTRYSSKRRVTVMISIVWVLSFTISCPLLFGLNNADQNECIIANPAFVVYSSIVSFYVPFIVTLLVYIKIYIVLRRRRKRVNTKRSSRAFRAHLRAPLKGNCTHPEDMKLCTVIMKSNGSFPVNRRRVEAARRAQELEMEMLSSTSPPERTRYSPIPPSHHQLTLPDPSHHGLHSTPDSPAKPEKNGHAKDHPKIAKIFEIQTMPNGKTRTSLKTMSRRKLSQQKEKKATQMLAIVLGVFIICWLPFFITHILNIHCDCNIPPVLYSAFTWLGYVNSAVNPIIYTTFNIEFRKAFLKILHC
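DiscoveRx PathHunter D2 beta-arrestin cells (2,100/well) attached overnight, then compound-stimulated 90 min at 37 C in HBSS/10 mM HEPES/0.1% Tween-20 buffer; beta-galactosidase complementation read by luminescence after 1 h at ambient temperature. Dopamine 57 uM final (EC100) as control.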
Six1-Eya2 blk = qHTS Assay for Inhibitors of the Six1/Eya2 Interaction; Homeobox protein SIX1 (Homo sapiens) + Protein phosphatase EYA2 (Homo sapiens), …; AlphaScreen GST-Six1/His-Eya2 binding, biochemical; active compounds read low; control for the full effect not named in the record; activity change, % (test concentration not listed); 360,000 tested, 0.56% active; AID 651725, 2012; in the data active = activity change below about -65%; inconclusive = about -30% to -65%; inactive = above about -30%; further: on the % scale 0 is the no-effect control and ±100 the full control effect
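Six1/Eya2 binding was read as AlphaScreen signal after compounds were pinned into GST-Six1 plus His-tagged Eya2 (5X stock 250/500 nM) in pH 8.0 Tris/NaCl/TCEP buffer, beads added, then incubated 1 h, 37 C, dark.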
TRPML1 agonist = qHTS for Agonists of the Human Mucolipin Transient Receptor Potential 1 (TRPML1). TRPML1-expressing cells, Ca2+ dye fluorescence, FDSS; host cell line not named in the record; reference of the full effect not given here. 410,000 tested, 0.12% active. activation, % (concentration not given with the values); in the data active = activation above about 50%; inconclusive = about 30% to 50%; inactive = below about 30%; further: 0% is about no effect; the text of the record puts the active cut at 80%
Target sequence (Q9GZU1 whole entry, looked up): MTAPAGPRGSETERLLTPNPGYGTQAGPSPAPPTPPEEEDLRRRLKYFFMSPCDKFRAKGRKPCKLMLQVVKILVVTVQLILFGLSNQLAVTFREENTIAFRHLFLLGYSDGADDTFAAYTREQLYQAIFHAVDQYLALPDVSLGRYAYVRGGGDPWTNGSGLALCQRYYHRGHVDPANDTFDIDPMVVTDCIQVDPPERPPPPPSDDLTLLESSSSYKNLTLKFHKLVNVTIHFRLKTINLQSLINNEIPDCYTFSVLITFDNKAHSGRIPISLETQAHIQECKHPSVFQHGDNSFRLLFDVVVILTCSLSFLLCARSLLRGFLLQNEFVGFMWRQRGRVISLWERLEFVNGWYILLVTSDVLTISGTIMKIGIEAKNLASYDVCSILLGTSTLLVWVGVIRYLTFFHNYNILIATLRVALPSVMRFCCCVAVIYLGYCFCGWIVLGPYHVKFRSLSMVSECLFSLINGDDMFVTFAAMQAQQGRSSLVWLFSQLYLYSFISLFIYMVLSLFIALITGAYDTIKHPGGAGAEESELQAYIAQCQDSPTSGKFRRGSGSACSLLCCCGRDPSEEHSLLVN
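Tetracycline-induced TRPML1-DL cells are seeded and incubated overnight before loading with a no-wash Ca2+ dye and quencher. Agonist activity is taken from the 110 s fluorescence read following compound pin-transfer on an FDSS, before EC80 54-4 challenge.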
D2 PAM = Beta-Arrestin HTS for Positive Allosteric Modulators of the Human D2 Dopamine Receptor: Potentiators | potentiation, % (test concentration not listed) | DiscoveRx D2 beta-arrestin cells, luminescence, 90 min; 100% = 57 uM dopamine signal | 360,000 tested, 0.23% active | AID 624464, 2012 | D(2) dopamine receptor (Homo sapiens), P14416; active = potentiation of 50% or more; inconclusive = 30% to 50%; inactive = 30% or less;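 further: compound concentration not given in the record; tested on top of an EC20 dose of dopamine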
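PathHunter beta-arrestin assay in DiscoveRx D2 cells. Compounds were added with an EC20 of dopamine (50 nM final) for 90 min at 37 deg C. Luminescence was read 1 h after detection reagent, with 57 uM dopamine as the EC100 control.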
TRPML1 inh = qHTS for Inhibitors of the Human Mucolipin Transient Receptor Potential 1 (TRPML1) | Mucolipin-1 (Homo sapiens), Q9GZU1 | TRPML1-inducible cells, Ca2+ dye fluorescence, FDSS; active compounds read low; inhibition of EC80 agonist-evoked calcium signal | activity change, negative = inhibition, % (concentration not given with the values) | 390,000 tested, 0.02% active | AID 624415, 2012; in the data active means activity change below about -50%; inconclusive means about -30% to -50%; inactive means above about -30%;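 further: stimulus is agonist 54-4 at its EC80 concentration; on the % scale 0 is the no-effect control and ±100 the full control effect; the text of the record puts the active cut at -80%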
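TRPML1-DL cells, Tet-induced overnight (~16 h, 37 °C) at 1,500 cells/well, were loaded with Ca8 no-wash dye plus quencher for 45-90 min at room temperature. Compounds were pinned during FDSS kinetic reading; agonist 54-4 at EC80 (4 uM final) then added.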
* hit, by the source's call; ? = inconclusive; nt = no result given; [ ] = dose if it differs, or a comment.

mol	PINK1 modulator	D2 agonist	Six1-Eya2 blk	TRPML1 agonist	D2 PAM	TRPML1 inh
Cc1ccc(O)c(N=Cc2ccc(C)s2)c1	-0.3%	4.4	-9	0.3	0	35
CNC(=S)NNC(=O)c1sc(-c2cc(C)on2)nc1C	3.7%	-2.5	-18	-0.2	-12	-2
Cc1cccc(N2CCN(S(=O)(=O)c3ccc(-c4coc(C)n4)cc3)CC2C)c1 (stereo not given)	-0.3%	3.7	-9	0.5	-14	-2
CC(C)c1ccc(NC(=S)Nc2ccc3cn[nH]c3c2)cc1	-0.9%	0.6	-2	1.5	10	7
c1ccc(CCNc2ncnc3c2nnn3Cc2ccccc2)cc1	11µM*	0.2	4	2.4	2	4
COC(=O)c1ccc([C@H]2Nc3ccc(S(=O)(=O)Nc4ccc(F)cc4)cc3[C@H]3C=CC[C@H]32)cc1	0.7%	nt	nt	-1.1	nt	2
CCC(=O)N1c2ccccc2CC1C(=O)NCc1ccc(N(C)C)cc1 (stereo not given)	-0.1%	nt	nt	0.3	nt	-1
O=C(Nc1ccc(NC(=O)C2CCCCC2)nc1)c1cccs1	13%	-4.8	-7	-0.1	-5	-11

An excerpt from the list above:
mol	PINK1 modulator	D2 agonist	Six1-Eya2 blk	TRPML1 agonist	D2 PAM	TRPML1 inh
CCC(=O)N1c2ccccc2CC1C(=O)NCc1ccc(N(C)C)cc1 (stereo not given)	-0.1%	nt	nt	0.3	nt	-1
O=C(Nc1ccc(NC(=O)C2CCCCC2)nc1)c1cccs1	13%	-4.8	-7	-0.1	-5	-11

Gathered by group: the entries above with a thiophene ring, fused or not (two)
mol	PINK1 modulator	D2 agonist	Six1-Eya2 blk	TRPML1 agonist	D2 PAM	TRPML1 inh
Cc1ccc(O)c(N=Cc2ccc(C)s2)c1	-0.3%	4.4	-9	0.3	0	35
O=C(Nc1ccc(NC(=O)C2CCCCC2)nc1)c1cccs1	13%	-4.8	-7	-0.1	-5	-11

Next part.
mol	PINK1 modulator	D2 agonist	Six1-Eya2 blk	TRPML1 agonist	D2 PAM	TRPML1 inh
Cc1nc2ccccc2n1S(=O)(=O)N(C)C	1.3%	-1.9	-2	-0.3	-2	-14
COc1ccc(NC(=O)COC(=O)CN2C(=O)NC(C)(C)C2=O)cc1	2.6%	-6.4	-3	-0.4	-13	8
Cc1onc(-c2ccccc2)c1C(=O)NCc1cccc(Cl)c1	12%	-4.3	-1	-0.1	-7	-9
COc1cc(/C=C/C(=O)OCC(=O)Nc2cc(S(=O)(=O)N3CCOCC3)ccc2Cl)cc(OC)c1OC	-1.1%	10	-22	1.7	-3	7
CCOC(=O)c1c(NC(=O)c2ccc(S(=O)(=O)N(CC(C)C)CC(C)C)cc2)sc2c1CCN(CC)C2	17%	nt	nt	3.0	nt	19
CCOC(=O)n1ccc(C(=O)Nc2ccccc2F)n1	1.1%	-0.6	-5	-1.2	8	-9
CCn1c(C(=O)N2CCC(C(=O)N3CCN(c4ccccn4)CC3)CC2)cc2sccc21	0.4%	1.8	-2	-0.5	3	-4
O=C(CN(C(=O)c1csnn1)c1cccc(C(F)(F)F)c1)NC1CCCC1	1.2%	-0.2	4	0.0	-6	5
COc1ccc(-c2oc(=O)c3cc(OC)c(OC)cc3c2C(F)(F)F)cc1	4.6%	-0.1	1	0.9	0	0
CCCN1CCN(C(=O)c2ccc(CS(=O)c3ccc(Br)cc3)o2)CC1 (stereo not given)	0.4%	0.4	-2	-1.0	-23	23
CCOc1ccccc1/C=C(\NC(=O)c1ccccc1)C(=O)NCCC(=O)O	-2.5%	0.1	12	0.6	-2	-15
COc1cccc(C2c3c(oc4ccc(F)cc4c3=O)C(=O)N2CCCN2CCOCC2)c1 (stereo not given)	2.0%	3.3	-2	-0.3	0	-2
CCn1c(=O)cc(SCC(=O)NCc2ccc(F)cc2Cl)c2ccccc21	1.1%	nt	nt	0.9	nt	24
COc1cccc(/C=N/n2c(COc3ccccc3)n[nH]c2=S)c1O	1.7%	1.2	0	nt	-8	nt
CCN(CC(=O)NCc1cccs1)C(=O)Cc1ccc(C)c(C)c1	-1.6%	2.7	4	-0.4	-4	16
O=C(Nc1ccc2c(c1)OCO2)c1cc(C2CCCCN2C(=O)c2ccc3c(c2)CCO3)on1 (stereo not given)	2.0%	-3.6	-8	0.6	-18	nt
N#Cc1cccc(C(=O)OCC(=O)NCc2ccco2)c1	-0.2%	2.2	-10	-0.6	1	3
O=C(CN1C(=O)c2ccccc2C1=O)NCCc1c[nH]c2ccccc12	-2.2%	-1.4	4	-0.5	-4	8
CC(C)(C)Nc1c(-c2cccs2)nc2ccccn12	-0.8%	-1.3	-12	0.7	-10	8
CCc1ccc(-c2nc3c(c(SCc4ccccc4F)n2)Cc2c(CO)cnc(C)c2O3)cc1	-0.9%	nt	nt	0.0	nt	-6
CN(C(=O)c1cccc(NC(=O)c2ccccc2)c1)C1CCCCC1	1.6%	-0.3	-2	0.7	-9	27
Cc1ccc(/C(O)=C2\C(=O)C(=O)N(C)C2c2ccccc2)cc1 (stereo not given)	-1.1%	5.1	7	1.2	30	25
c1cnc(Oc2ccc(-c3nnco3)cc2)cn1	-0.7%	-3.8	-2	-0.2	-7	-9
CCOC(=O)CNC(=O)CSc1nnnn1-c1cc(C)ccc1C	0.9%	-4.8	6	0.8	-14	-14
O=C(Nc1ccc(SC(F)F)cc1)c1ccc2nccnc2c1	nt	0.8	16	-0.1	-1	10
CCC(C)N=CC1=C(O)CC(c2ccccc2)CC1=O (stereo not given)	13%	-2.9	8	0.8	6	-10
Cc1cc(NC(=O)CN2C(=O)/C(=C/c3ccccc3F)SC2=S)no1	5.9%	-1.3	2	0.9	-6	12
Cc1cc(=O)[nH]c2nnc(SCC(=O)Nc3cc(C(F)(F)F)ccc3Cl)n12	11%	nt	nt	1.3	nt	25
CCNC(=O)C1CCCN(C(=O)c2ccc(OC)cc2)CC1 (stereo not given)	-0.2%	7.7	3	-0.4	-3	nt
O=C(Nc1ncn[nH]1)c1ccc([N+](=O)[O-])cc1[N+](=O)[O-]	-1.6%	6.9	-22	0.4	27	6
CCOc1ccc(C(CC(=O)O)n2cnnn2)cc1 (stereo not given)	2.0%	-2.0	4	0.0	0	27
CC(NC(=O)c1ccc2c(c1)sc1nc(-c3ccc(F)cc3)cn12)C12CC3CC(CC(C3)C1)C2 (stereo not given)	3.3%	nt	nt	0.6	nt	-19
CCOC(=O)C1(C(=O)OCC)C(C(=O)c2ccccc2)C1c1ccccc1 (stereo not given)	0.0%	-3.7	19	0.9	-5	10
CCNC(=O)c1cc2c(c(-c3cccc(-c4cncnc4)c3)n1)[C@H](CCO)N(C(C)=O)C2	3.1%	nt	-9	-0.5	nt	nt
CCOc1ccc(C2Oc3nc(SC)nnc3-c3ccccc3N2C(C)=O)cc1OC (stereo not given)	10%	-3.3	22	0.6	-1	-8
Cc1ccc(/C=N/Nc2nc3ccccc3s2)o1	4.7%	2.4	?	0.8	4	40
O=C(N1CCC(O)(c2cccnc2)CC1)C12CC3CC(CC(C3)C1)C2	0.5%	-1.8	0	-0.3	11	16
CCOC(=O)c1cnn(-c2ccc(Cl)cc2)c1C1CCN(C(=O)OC(C)(C)C)CC1	4.7%	-3.8	-3	0.4	-31	-15
CC(=O)c1ccc(NC(=S)NNC(=O)NC2CCCCC2)cc1	1.9%	-3.7	1	0.5	-10	-16
C#CC1CCCCC1NC(=O)Nc1cnccc1C(F)(F)F (stereo not given)	0.0%	-5.0	-1	-0.1	-2	-10
O=C(O[C@@H]1[C@H](Cc2ccccc2)NS(=O)(=O)[C@H]2C[C@@H]3C=C[C@]12O3)c1ccccc1Br	2.1%	-1.3	2	-0.4	-8	-5
Cc1ccc2c(C)c(C(=O)N(C)CCC3CCCCO3)oc2c1C (stereo not given)	2.9%	-3.3	-5	0.7	-9	7
CCOc1ccccc1OCCC(=O)NNC(=O)Cn1nc(C)cc1C	-0.2%	1.2	-6	-0.1	0	0
Cc1ccc(CNC(=O)CN2C(=O)NC(C)(c3ccccc3Cl)C2=O)cc1 (stereo not given)	-1.3%	2.6	1	-0.3	-4	7
CCc1nccn1Cc1cc(C=O)ccc1OC	-2.2%	-1.5	-14	-0.2	-5	4
COc1cc(OC)c(C(=O)Nc2ccc(S(=O)(=O)Nc3ncccn3)cc2)cc1OC	3.3%[38.3 µM]	0.8	-2	0.4	-9	-8
CCC(C)NC(=O)CCC(=O)Nc1ccc2nc(N3CCOCC3)cc(C)c2c1 (stereo not given)	-0.4%	-3.5	-2	-1.2	-9	-8
NC(=O)C1CCN(C(=O)c2ccc(Cl)c(S(=O)(=O)N3CCCCCC3)c2)CC1	0.0%	3.0	15	0.1	2	6
Cc1ccccc1-n1c(SCC(=O)N/N=C/c2ccccc2OCC(=O)O)nc2ccccc2c1=O	1.6%	-0.1	-8	0.9	2	26
O=C(NCCc1ccccn1)c1ccc(COc2ccccc2)o1	-0.8%[38.3 µM]	-1.2	-3	0.2	-2	0
CCCCCn1c(CCNC(=O)c2cccs2)nc2ccccc21	-0.8%[38.3 µM]	-0.7	-3	1.5	-10	3
Cc1ccc(-c2c(C)sc3ncn(CC(=O)N4CCOCC4)c(=O)c23)cc1C	-0.5%	-3.2	-2	-0.8	6	7
O=C(O)CN1C(=O)SC(Nc2ccccc2)C1=O (stereo not given)	1.6%[38.3 µM]	-2.8	-1	-0.1	-27	-14
CCCC1(C(=O)OC)NC(c2ccc(OC)cc2OC)C2C(=O)N(c3cccc(C(C)=O)c3)C(=O)C21 (stereo not given)	3.6%	4.1	1	-0.5	1	7
C=CCNC(=S)Nc1ccc2nsnc2c1	-1.6%	-0.2	14	0.4	2	8
CCCCN(C)C(=O)c1ccc2c(c1)N(CC)C(=O)c1ccccc1S2(=O)=O	0.0%	2.7	2	-0.4	-1	17
CC1CCN(S(=O)(=O)c2ccc3ncn(CC(=O)N(C)C4CCCCC4)c(=O)c3c2)CC1	-0.6%	-3.4	2	0.7	-4	-2
Cn1c(=N)n(CC(=O)c2ccc(Br)cc2)c2ccccc21	0.2%	-6.2	61	-0.8	-19	4
CCCCNC(=O)CC(C(=O)N1CCc2ccccc21)n1ccnc1 (stereo not given)	24%[38.3 µM]	-2.1	0	1.5	-10	5

Screens from PubChem.
